Env fusion inh = inhibitors of HIV-1 Env-driven cell-cell fusion, primary screen, HeLa-JRFL effector, CEM21 target cells, luciferase. inhibition, % at 12.3 µM. hit rate 1.1% among 360,000;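 active means mean replicate inhibition score of at least 50 and every replicate individually at or above 50; inconclusive means only one of the two criteria met; inactive means mean below 50 and not all replicates reaching 50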;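 further: 0% = plate neutral controls and 100% = maraviroc near 300 nM; one replicate is shown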
UUG fidelity = modulators of yeast start codon fidelity, primary screen, whole organism, S. cerevisiae, single point, plate reader; hit rate 0.13% among 350,000; S. cerevisiae UUG-firefly luciferase reporter, luminescence/redox ratio; activity score, % at 18.7 µM;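 active means replicate mean at a twofold rise or more, about +100% in these data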;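 further: firefly luciferase made from a UUG start codon reports start codon fidelity; reporter light over untreated wells divided by growth signal over untreated wells; some hits fall short of that in this replicate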
* hit, by the source's call; ? = inconclusive; [ ] = remark or other dose.

Sequence of screens – Env fusion inh	UUG fidelity
- COc1ccc(S(=O)(=O)N(C)C[C@H]2OCCCC[C@@H](C)Oc3ccc(NC(=O)Nc4ccc5c(c4)OCO5)cc3C(=O)N([C@H](C)CO)C[C@@H]2C)cc1
    14[16.7 µM]	-13
- C[C@H]1CN([C@@H](C)CO)C(=O)c2cccc(NC(=O)NC3CCCCC3)c2O[C@H]1CN(C)C(=O)Nc1ccc2c(c1)OCO2
    14[16.7 µM]	-1
- C[C@@H](NC(=O)C[C@H]1C[C@H]2c3cc(NC(=O)NC4CCCC4)ccc3O[C@H]2[C@H](CO)O1)c1ccccc1
    12[16.7 µM]	-13
- CN(C)CC(=O)Nc1ccc2c(c1)[C@H]1C[C@H](CC(=O)NCc3ccccc3F)O[C@H](CO)[C@H]1O2
    1[16.7 µM]	-11
- C[C@@H]1CCCCO[C@@H](CN(C)CC2CCCCC2)[C@@H](C)CN([C@H](C)CO)C(=O)c2cc(NC(=O)NC3CCCCC3)ccc2O1
    -4[16.7 µM]	2
- CC(C)CC#Cc1cnc2c(c1)C(=O)N([C@H](C)CO)C[C@@H](C)[C@H](CN(C)S(=O)(=O)c1cccs1)O2
    26[16.7 µM]	-4
- COc1ccc(S(=O)(=O)Nc2ccc3c(c2)C(=O)N([C@@H](C)CO)C[C@@H](C)[C@H](CN(C)S(=O)(=O)c2ccc(Cl)cc2)OCCCC[C@H](C)O3)cc1
    -1[16.7 µM]	3
- C[C@@H]1CCCCO[C@H](CN(C)S(=O)(=O)c2cn(C)cn2)[C@@H](C)CN([C@@H](C)CO)C(=O)c2cc(NC(=O)Nc3ccc4c(c3)OCO4)ccc2O1
    -10[16.7 µM]	7
- C[C@@H]1CN([C@H](C)CO)C(=O)CCCn2cc(nn2)CO[C@H]1CN(C)Cc1cccc(C(F)(F)F)c1
    -14[16.7 µM]	-1
- C[C@H](CO)N1C[C@H](C)[C@H](CN(C)CC2CC2)Oc2cc(C3=CCCC3)ccc2S1(=O)=O
    13[16.7 µM]	1

The results go on:
Sequence of screens – Env fusion inh	UUG fidelity
- CCCC#Cc1ccc2c(c1)O[C@@H](CN(C)S(=O)(=O)c1cccc(F)c1)[C@H](C)CN([C@@H](C)CO)S2(=O)=O
    21[16.7 µM]	-8
- C[C@H](CO)N1C[C@H](C)[C@H](CN(C)S(=O)(=O)c2ccccc2)OCCCC[C@H](C)Oc2ccc(NC(=O)CCC(F)(F)F)cc2C1=O
    1[16.7 µM]	2
- C[C@H]1CN([C@@H](C)CO)C(=O)c2cc(NS(=O)(=O)c3cn(C)cn3)ccc2O[C@@H]1CN(C)CC1CCCCC1
    -3[16.7 µM]	-8
- COc1ccccc1CNC(=O)C[C@H]1CC[C@H](NC(=O)CC2CC2)[C@@H](CO)O1
    5[16.7 µM]	-16
- Cc1ccc(S(=O)(=O)Nc2ccc3c(c2)C(=O)N([C@@H](C)CO)C[C@H](C)[C@H](CN(C)S(=O)(=O)c2ccc(F)cc2)OCCCC[C@@H](C)O3)cc1
    -27[16.7 µM]	10
- COc1cccc(NC(=O)N[C@@H]2CC[C@@H](CC(=O)N3CCOCC3)O[C@@H]2CO)c1
    -9[16.7 µM]	-1
- CCNC(=O)C[C@H]1CC[C@@H]2[C@H](COc3ccc(NC(=O)Nc4cccc(F)c4)cc3C(=O)N2C)O1
    22[16.7 µM]	1
- CCCN(C)C[C@H]1OCCCC[C@@H](C)Oc2ccc(NC(=O)Nc3ccccc3)cc2C(=O)N([C@@H](C)CO)C[C@H]1C
    13[16.7 µM]	6
- C[C@@H]1CN([C@H](C)CO)C(=O)c2cc(NS(=O)(=O)c3cccs3)ccc2O[C@@H](C)CCCCO[C@@H]1CN(C)CC1CC1
    -23[16.7 µM]	18
- COCC(=O)Nc1ccc2c(c1)C(=O)N(C)C[C@H](OC)[C@@H](C)CN(C(C)=O)[C@@H](C)CO2
    12[16.7 µM]	-5

Further records:
Sequence of screens – Env fusion inh	UUG fidelity
- C[C@H]1CN([C@@H](C)CO)C(=O)c2cc(C#CC3CCCC3)cnc2O[C@@H]1CN(C)S(=O)(=O)c1cccc(F)c1
    31[16.7 µM]	-7
- CNC[C@H]1Oc2c(NC(=O)Nc3ccc(C(F)(F)F)cc3)cccc2C(=O)N([C@@H](C)CO)C[C@@H]1C
    14[16.7 µM]	2
- COCCNC(=O)C[C@@H]1C[C@H]2c3cc(NC(=O)NC4CCCCC4)ccc3O[C@H]2[C@@H](CO)O1
    -22[16.7 µM]	22
- C[C@@H]1CCCCO[C@H](CN(C)Cc2ccc(Cl)c(Cl)c2)[C@H](C)CN([C@@H](C)CO)C(=O)c2cc(NC(=O)NC3CCCCC3)ccc2O1
    4[16.7 µM]	11
- C[C@@H]1CN([C@@H](C)CO)C(=O)Cc2cc(NS(=O)(=O)c3ccc(Cl)cc3)ccc2O[C@H]1CN(C)Cc1ccc(Oc2ccccc2)cc1
    ?	18
- C[C@@H]1CCCCO[C@H](CN(C)C)[C@H](C)CN([C@H](C)CO)C(=O)c2cc(NC(=O)C3CCCCC3)ccc2O1
    -3[16.7 µM]	13
- O=C(N[C@H]1CC[C@H](CCn2cc(-c3cccnc3)nn2)O[C@H]1CO)c1ccccc1F
    19[16.7 µM]	15
- C[C@H]1CCCCO[C@@H](CN(C)Cc2ccc3c(c2)OCO3)[C@@H](C)CN([C@@H](C)CO)C(=O)c2cc(NS(=O)(=O)c3ccccc3)ccc2O1
    1[16.7 µM]	6
- COc1ccccc1CN(C)C[C@H]1OCc2cnnn2CCCC(=O)N([C@H](C)CO)C[C@H]1C
    -7[16.7 µM]	-1
- CC(=O)Nc1ccc2c(c1)C(=O)N(C)[C@H]1CC[C@@H](CC(=O)NCCCN3CCOCC3)O[C@H]1CO2
    12[16.7 µM]	-9

(further entries)
Sequence of screens – Env fusion inh	UUG fidelity
- C[C@H](CO)N1C[C@H](C)[C@H](CN(C)C(=O)C2CCCCC2)Oc2cc(C3=CCCCC3)ccc2S1(=O)=O
    13[16.7 µM]	9
- COc1ccc(CNC(=O)C[C@H]2C=C[C@H](NC(=O)c3ccc4c(c3)OCO4)[C@@H](CO)O2)cc1
    22[16.7 µM]	-1
- C[C@H]1CN([C@@H](C)CO)C(=O)Cc2cc(NC(=O)CCN3CCOCC3)ccc2O[C@H]1CN(C)C(=O)Nc1cccc2ccccc12
    -15[16.7 µM]	14
- C[C@@H]1CN([C@H](C)CO)C(=O)c2cc(NC(=O)Nc3ccccc3)ccc2O[C@@H]1CN(C)Cc1ccncc1
    18[16.7 µM]	-15
- Cc1noc(C)c1S(=O)(=O)Nc1ccc2c(c1)C(=O)N([C@H](C)CO)C[C@H](C)[C@H](CN(C)C(=O)Nc1ccccc1)O2
    4[16.7 µM]	3
- CCCN1C[C@H](C)[C@@H](OC)CN(C)C(=O)c2ccc(NC(=O)C3CCC3)cc2OC[C@@H]1C
    24[16.7 µM]	-5
- C[C@H](CO)N1C[C@H](C)[C@H](CN(C)S(=O)(=O)c2cn(C)cn2)Oc2ccc(NS(=O)(=O)c3cccs3)cc2C1=O
    -26[16.7 µM]	9
- C[C@H](CO)N1C[C@H](C)[C@H](CN(C)Cc2ccc(-c3ccccc3)cc2)Oc2ccc(NC(=O)CCC(F)(F)F)cc2CC1=O
    -80[16.7 µM]	3
- O=C(Nc1ccc(Cl)c(Cl)c1)N[C@@H]1CC[C@@H](CCn2cc(C3CC3)nn2)O[C@@H]1CO
    16[16.7 µM]	13
- COc1ccc(CNC(=O)C[C@H]2CC[C@@H](NC(=O)c3cccc(F)c3)[C@H](CO)O2)cc1
    22[16.7 µM]	-7

(listing goes on)
Sequence of screens – Env fusion inh	UUG fidelity
- CCC(=O)Nc1ccc2c(c1)OC[C@H](C)N(C(=O)c1ccccc1F)C[C@@H](C)[C@@H](OC)CN(C)C2=O
    -9[16.7 µM]	5
- CCCC#Cc1ccc2c(c1)O[C@H](CN(C)C(=O)CN(C)C)[C@H](C)CN([C@H](C)CO)S2(=O)=O
    20[16.7 µM]	98
- COc1ccc(CN(C)C[C@@H]2OCCCC[C@@H](C)Oc3ccc(N(C)C)cc3C(=O)N([C@H](C)CO)C[C@H]2C)cc1
    -17[16.7 µM]	12
- COc1ccccc1CNC(=O)C[C@@H]1CC[C@@H]2[C@H](COC[C@H](O)CN2Cc2cccc(-c3ccncc3)c2)O1
    -1[16.7 µM]	-9
- C[C@H]1CN([C@@H](C)CO)C(=O)c2cc(NC(=O)Cc3cn(C)c4ccccc34)ccc2O[C@@H]1CN(C)C(=O)Nc1ccc(C(F)(F)F)cc1
    22[16.7 µM]	2
- O=C(C[C@@H]1CC[C@@H](NS(=O)(=O)c2cccc(F)c2)[C@@H](CO)O1)NCc1ccc2c(c1)OCO2
    -6[16.7 µM]	8
- N#C[C@@H]1[C@H](c2ccc(C3=CCCC3)cc2)[C@@H](CO)N1C(=O)Cc1ccncc1
    -3[16.7 µM]	6
- Cc1noc(C)c1NC(=O)Nc1ccc2c(c1)C(=O)N([C@@H](C)CO)C[C@H](C)[C@H](CN(C)Cc1ccc3c(c1)OCO3)OCCCC[C@@H](C)O2
    -24[16.7 µM]	17
- C/C=C/c1ccc2c(c1)O[C@@H](CN(C)C(=O)c1ccc(F)cc1)[C@@H](C)CN([C@@H](C)CO)S2(=O)=O
    4[16.7 µM]	10
- COc1ccc(NC(=O)Nc2cccc3c2O[C@@H](CN(C)S(=O)(=O)c2cccs2)[C@H](C)CN([C@H](C)CO)C3=O)cc1
    -39[16.7 µM]	9

Some of these compounds in order of molecular weight, highest first:
Sequence of screens – Env fusion inh	UUG fidelity
- C[C@H]1CN([C@@H](C)CO)C(=O)c2cc(NC(=O)Cc3cn(C)c4ccccc34)ccc2O[C@@H]1CN(C)C(=O)Nc1ccc(C(F)(F)F)cc1
    22[16.7 µM]	2
- COc1ccc(NC(=O)Nc2cccc3c2O[C@@H](CN(C)S(=O)(=O)c2cccs2)[C@H](C)CN([C@H](C)CO)C3=O)cc1
    -39[16.7 µM]	9
- COc1ccccc1CNC(=O)C[C@@H]1CC[C@@H]2[C@H](COC[C@H](O)CN2Cc2cccc(-c3ccncc3)c2)O1
    -1[16.7 µM]	-9
- CCC(=O)Nc1ccc2c(c1)OC[C@H](C)N(C(=O)c1ccccc1F)C[C@@H](C)[C@@H](OC)CN(C)C2=O
    -9[16.7 µM]	5
- O=C(C[C@@H]1CC[C@@H](NS(=O)(=O)c2cccc(F)c2)[C@@H](CO)O1)NCc1ccc2c(c1)OCO2
    -6[16.7 µM]	8
- CCCC#Cc1ccc2c(c1)O[C@H](CN(C)C(=O)CN(C)C)[C@H](C)CN([C@H](C)CO)S2(=O)=O
    20[16.7 µM]	98
- COc1ccc(CNC(=O)C[C@H]2CC[C@@H](NC(=O)c3cccc(F)c3)[C@H](CO)O2)cc1
    22[16.7 µM]	-7
- N#C[C@@H]1[C@H](c2ccc(C3=CCCC3)cc2)[C@@H](CO)N1C(=O)Cc1ccncc1
    -3[16.7 µM]	6

New compounds follow
Sequence of screens – Env fusion inh	UUG fidelity
- C[C@@H]1CCCCO[C@@H](CN(C)S(=O)(=O)c2ccc(F)cc2)[C@H](C)CN([C@H](C)CO)C(=O)c2cc(NC(=O)C3CCCCC3)ccc2O1
    -3[16.7 µM]	6
- Cc1noc(C)c1NC(=O)N(C)C[C@@H]1OCCCC[C@H](C)Oc2ccc(NS(=O)(=O)c3ccc(Cl)cc3)cc2C(=O)N([C@@H](C)CO)C[C@@H]1C
    -43[16.7 µM]	8
- C[C@@H]1CN([C@H](C)CO)S(=O)(=O)c2ccc(-c3ccc(F)cc3)cc2O[C@H]1CN(C)C(=O)Nc1ccccc1F
    -22[16.7 µM]	5
- COCC#Cc1cnc2c(c1)C(=O)N([C@H](C)CO)C[C@H](C)[C@H](CN(C)C)O2
    -107[16.7 µM]	0
- C[C@@H]1CN([C@@H](C)CO)C(=O)c2cc(NC(=O)Nc3ccc(F)cc3)ccc2O[C@@H](C)CCCCO[C@@H]1CN(C)Cc1ccccc1
    -21[16.7 µM]	4
- C[C@@H]1CN([C@@H](C)CO)C(=O)c2cc(C#CC3CCCC3)cnc2O[C@@H]1CN(C)C(=O)C1CCCCC1
    -20[16.7 µM]	6
- O=S(=O)(N[C@@H]1CC[C@@H](CCn2cc(-c3ccccn3)nn2)O[C@@H]1CO)c1cccc(Cl)c1
    13[16.7 µM]	-17
- CO[C@@H]1CN(C)C(=O)c2cc(NS(C)(=O)=O)ccc2OC[C@@H](C)N(Cc2ccccc2)C[C@H]1C
    5[16.7 µM]	4
- C[C@@H]1CN([C@H](C)CO)C(=O)Cc2cc(NC(=O)CCCCCC(=O)Nc3ccccc3N)ccc2O[C@@H]1CN(C)C(=O)Nc1ccc(C(F)(F)F)cc1
    15[16.7 µM]	-25
- CCCNC(=O)N(C)C[C@@H]1Oc2ncc(-c3ccc(OC)cc3)cc2C(=O)N([C@H](C)CO)C[C@@H]1C
    -1[16.7 µM]	5

More results:
Sequence of screens – Env fusion inh	UUG fidelity
- O=C(C[C@H]1C=C[C@@H](NC(=O)NC2CCCC2)[C@H](CO)O1)NCc1ccc(F)cc1
    8[16.7 µM]	-12
- C[C@H]1CN([C@@H](C)CO)C(=O)c2cc(-c3cncnc3)cnc2O[C@H]1CN(C)C(=O)c1cccc(F)c1
    -46[16.7 µM]	11
- C[C@H](CO)N1C[C@H](C)[C@H](CN(C)C(=O)c2ccccc2)OCCCC[C@H](C)Oc2ccc(NC(=O)CCC(F)(F)F)cc2C1=O
    -4[16.7 µM]	20
- CC(C)C#Cc1ccc2c(c1)O[C@H](CN(C)C(=O)c1ccccc1)[C@H](C)CN([C@@H](C)CO)S2(=O)=O
    -7[16.7 µM]	11
- CCC(=O)N(C)C[C@@H]1Oc2ncc(Br)cc2C(=O)N([C@H](C)CO)C[C@@H]1C
    -13[16.7 µM]	-9

Only part of the results is shown; count on the stated rates, not on these rows.
